Source: PubChem BioAssay
Cruzain inh Det = cruzain (T. cruzi) inhibition with detergent; 200,000 compounds, 0.43% hits; Potency, µM, without a hit: max response, negative = inhibition, hits mostly inhibitors; purified cruzain, Z-FR-AMC fluorescence, 0.01% Triton; P25779; active = well fitted curve in the direction sought with a large enough effect; inconclusive = small, poorly fitted or top-dose-only effect, or another doubt; inactive = no such curve, though single readings can be large; an effect the other way counts as inactive or inconclusive;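 also: plate controls were neutral wells for no effect and buffer without enzyme for full effect; nearly all actives have a fitted effect of over 40% in size; top concentration of the series not given in the record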
Target sequence (P25779 123-467 limits assumed): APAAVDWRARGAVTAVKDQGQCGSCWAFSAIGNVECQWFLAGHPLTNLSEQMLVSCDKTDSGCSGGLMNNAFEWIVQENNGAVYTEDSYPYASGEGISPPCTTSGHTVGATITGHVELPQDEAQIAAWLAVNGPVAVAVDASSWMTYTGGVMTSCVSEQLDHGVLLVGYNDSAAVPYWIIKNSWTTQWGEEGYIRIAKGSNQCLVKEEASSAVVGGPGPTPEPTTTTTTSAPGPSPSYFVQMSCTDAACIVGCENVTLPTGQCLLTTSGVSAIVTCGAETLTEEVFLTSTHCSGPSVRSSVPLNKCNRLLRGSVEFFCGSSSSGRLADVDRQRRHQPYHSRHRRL
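Cysteine protease activity tested under reducing, mildly acidic conditions (100 mM sodium acetate pH 5.5, 5 mM DTT) plus 0.01% Triton X-100. Cruzain 1.5 nM; substrate Z-FR-AMC 2 uM; 15 min compound preincubation at room temperature.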
MARV entry inh = inhibitors of Marburg virus binding or cell entry; Marburg virus pseudotyped entry inhibition, cell reporter; control for the full effect not named in the record; about a third of the inactives were read at about 46 µM; Potency, µM (series often up to 37.8 µM), inactives show top-dose activity change, negative = inhibition, hits mostly inhibitors; 300,000 compounds, 1.8% hits; active = well fitted inhibition curve with a large enough effect; inconclusive = small, poorly fitted or top-dose-only effect, or effect the other way; inactive = flat fitted curve, though single readings scatter; tested in HEK293 cells; about a fifth of its hits are not listed in these tables; also: % is scaled to controls: 0 for no effect and ±100 for the full control effect; luciferase read-out
Cruzain noTriton = inhibitors of Trypanosoma cruzi cruzain without detergent | P25779 | purified cruzain, Z-FR-AMC fluorescence, no detergent | Potency, µM, for inactives: max response, negative = inhibition, actives largely listed as inhibitors | 200,000 compounds, 2.3% hits | AID 1476; active = well fitted curve in the direction sought with a large enough effect; inconclusive = small, poorly fitted or top-dose-only effect, or another doubt; inactive = no such curve, though single readings can be large; an effect the other way counts as inactive or inconclusive;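 also: plate controls were enzyme without inhibitor for no effect and buffer without enzyme for full effect; nearly all actives have a fitted effect of over 40% in size; top concentration of the series not given in the record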
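Detergent-free condition (0.00005% Triton X-100) in acetate buffer pH 5.5 with DTT. 1.5 nM enzyme and compound were pre-mixed 15 min, then 2 uM Z-FR-AMC substrate added; reaction progress from fluorescence change between first and third reads (60 s).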
LASV entry inh = blocks Lassa virus binding to or entry into cells; Lassa virus pseudotype entry inhibition, cell reporter; control for the full effect not named in the record; Potency, µM (top dose mostly 37.9 µM), without a hit: at the top dose activity change, negative = inhibition, most hits filed as inhibitors; 300,000 compounds, 1.2% hits; active means well fitted inhibition curve with a large enough effect; inconclusive means small, poorly fitted or top-dose-only effect, or effect the other way; inactive means flat fitted curve, though single readings scatter; tested in HEK293 cells; also: % is scaled to controls: 0 for no effect and ±100 for the full control effect; nearly all actives have a fitted effect of over 50% in size; luciferase read-out
RE007 growth inh = less growth of the S. pombe RE007 Vpr strain. 360,000 compounds, 0.21% hits. S. pombe RE007 Vpr strain, BacTiter-Glo ATP luminescence, 24 h; control for the full effect not named in the record. Potency, µM (doses to about 92.2 µM), without a hit: at the top dose activity change, negative = less growth; active = well fitted falling curve with a large enough effect; inconclusive = small, poorly fitted or top-dose-only effect; inactive = no such curve, though single readings can be large or run the other way;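 also: % is scaled to controls: 0 for no effect and ±100 for the full control effect; nearly all actives have a fitted effect of over 50% in size; the assay follows cell death caused by Vpr and the record does not say whether a fall means rescue or toxicity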
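Fission yeast RE007 carrying one integrated HIV-1 vpr copy, seeded at OD 0.01 in PMG+AL medium with 23 nL pinned compound. Grown 24 h at 30 degrees; viability read by BacTiter-Glo luminescence after 5 min.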
NS1 inh = blocks influenza NS1 protein function; S. cerevisiae slowed by influenza A NS1, growth recovery by OD600; Potency, µM (titrated, usually from 46.1 µM), for the others: at the highest dose activity, positive = more growth; 270,000 compounds, 0.4% hits; also: actives are rising curves; nearly all actives have a fitted effect of over 50% in size
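Compounds were scored for reversing the slow growth caused by influenza A NS1 in S. cerevisiae, measured by optical density at 600 nm. Assay medium contained 2% galactose at pH 6.0; NS1-free yeast of the same strain were the positive control.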
SARS PLP yeast = blocks SARS-CoV papain-like protease in a yeast assay; 330,000 compounds, 0.19% hits; Potency, µM (top dose mostly 32.9 µM), inactives show top-dose activity, positive = growth rescue; S. cerevisiae expressing SARS-CoV PLpro, growth rescue; control for the full effect not named in the record; AID 485353; also: 0% is about no effect; nearly all actives have a fitted effect of over 55% in size; growth read by luminescence after 48 h
2A StopGo = FMDV 2A StopGo reporter, luciferase signal. Potency, µM (titrated, usually from 57.9 µM), for inactives: at the top dose signal change, negative = less light. 410,000 compounds, 1.2% hits. human cells with a luciferase reporter of 2A StopGo recoding; control for the full effect not named in the record; active = well fitted falling curve with a large enough effect; inconclusive = small, poorly fitted or top-dose-only effect; inactive = no such curve, though single readings can be large or run the other way; tested in HEK293T cells; also: % is scaled to controls: 0 for no effect and ±100 for the full control effect; nearly all actives have a fitted effect of over 45% in size; luciferase light after 4 h
Active calls of the source: *; ? = inconclusive; / = not tested or not shown; [ ] = remark or other dose. Unless noted, calls follow the shape of the dose curve; as a rule, active means well fitted rising curve with a large enough effect; inconclusive means small, poorly fitted or top-dose-only effect; inactive means no such curve, though single readings can be large or run the other way. Potency is read from the fitted curve at half-maximal effect.

Molecule | Cruzain inh Det | MARV entry inh | Cruzain noTriton | LASV entry inh | RE007 growth inh | NS1 inh | SARS PLP yeast | 2A StopGo
Cc1ccc(-c2cn(-c3ccccc3F)c(=S)[nH]2)cc1 | / | / | / | / | 6.9% | 0.2% | 1.0% | 25.3%
O=C(Nc1ccc(Cl)c(Cl)c1)Nc1ccccn1 | / | / | / | / | -0.8% | -2.6% | -1.5% | 55.2%[activator]
CS(=O)(=O)N(Cc1cccc(CN(C(C(=O)O)c2ccccc2)S(C)(=O)=O)c1)C(C(=O)O)c1ccccc1 (stereo not drawn) | / | / | / | / | -9.3% | 21.1% | 10.8% | -5.5%
Cc1cc(C)cc(NC(=O)Cn2c(=O)n(C(C)C)c(=O)c3oc4ccccc4c32)c1 | -1.5% | / | 12.6% | 18.8%[46.1 µM] | / | / | / | -20.6%
O=C1CCCC(O)=C1N=Nc1cccc(S(=O)(=O)N2CCOCC2)c1 | / | -2.8%[46.1 µM] | / | 7.5% | 8.6% | 5.3% | -0.5% | -4.9%
CCCCCn1c(=O)[nH]c2cc(C(=O)NCCCN3CCCCC3)ccc2c1=O | 5.6% | ? | 7.7% | -25.2% | -7.8% | -6.2% | -11.2% | -13.4%
O=C(Cn1cc(S(=O)(=O)c2ccc(F)cc2)c(=O)c2cc3c(cc21)OCO3)Nc1ccccc1 | -0.7% | 2.2%[46.1 µM] | -2.8% | 12.7%[46.1 µM] | / | / | / | -5.6%
COc1cccc(Nc2nnc(Cc3cccnc3)c3ccccc23)c1 | / | / | / | / | 4.1% | 3.4% | 1.7% | -9.2%
Cc1cc(N2C(=O)C(O)=C(C(=O)c3ccco3)C2c2cccnc2)no1 (stereo not drawn) | 1.0% | -2.8% | 2.2% | / | / | 6.4% | -7.5% | /
COc1ccc(Cl)cc1NC(=O)C1CCCN(c2ncnc3onc(C)c23)C1 (stereo not drawn) | 1.3% | / | ? | -15.9%[46.1 µM] | / | / | / | ?
CC(C)CN1CCNC(=O)C1CC(=O)NCCCN1CCCc2ccccc21 (stereo not drawn) | / | / | / | / | -0.9% | 0.6% | 1.4% | -3.4%
COc1ccc(NS(=O)(=O)c2ccc3[nH]c4c(c3c2)CCCCC4)cc1 | -10.7% | / | ? | -2.8%[46.1 µM] | / | / | / | -1.4%
CC1CCCCC1NC(=O)CSc1ccsc1[N+](=O)[O-] (stereo not drawn) | / | -1.9% | / | 5.4% | -11.7% | -4.4% | -0.3% | 9.2%
COc1ccc(CCNC(=O)C(C(=O)c2ccccc2)n2cc(Cl)ccc2=O)cc1OC (stereo not drawn) | -9.2% | 1.7% | -4.5% | -3.2% | ? | -15.3% | -3.8% | -11.6%
CCc1ccc(-n2c(C)nc3cc(C(=O)NCCc4ccccc4)ccc32)cc1 | 0.2% | / | 12.5% | ? | / | / | / | -4.2%
COc1ccc2c(COC(=O)[C@H](C)NS(=O)(=O)c3ccccc3F)cc(=O)oc2c1 | / | ? | / | ? | 0.9% | / | -6.8% | 0.0%
O=C(O)CSc1cnc2ccccc2n1 | 1.7% | 21.7% | -11.6% | -0.6% | 5.5% | 15.8µM* | 8.0% | 0.8%
COc1ccc(S(=O)(=O)Oc2cc(C(=S)N3CCOCC3)ccc2OC)cc1 | / | ? | / | ? | -13.0% | 0.4% | -5.2% | -8.7%
CC1CN(c2cc3nccnc3cc2F)CC(C)O1 (stereo not drawn) | 0.4% | 0.2% | 2.8% | 4.8% | -23.9% | -9.5% | 1.8% | 0.0%
S=C(NCCc1ccccc1)N1CCn2cccc2C1c1cccnc1 (stereo not drawn) | / | ? | / | 6.4% | 5.3% | / | -17.2% | -26.9%
Cc1ccc(C2CC(=O)c3cnc(N4CCc5ccccc5C4)nc3C2)cc1 (stereo not drawn) | -4.4% | -1.1% | ? | 3.66µM* | 15.6% | 28.4% | 1.6% | -4.8%
CCCCNC(=O)C(=O)N/N=C/c1cccc(Br)c1 | -1.1% | 4.6% | ? | 6.9% | -9.0% | -21.0% | 15.5% | -2.6%
O=[N+]([O-])c1ccc2c(c1)c1ccccc1n2CCO | / | -17.6%[14.2 µM] | / | 2.6% | -19.1% | -1.2% | -1.3% | -12.6%
Cc1cc(=O)[nH]c(SCC(=O)Nc2ccc(Br)cc2)c1C#N | -1.0% | -23.2% | -6.1% | 6.3% | -2.0% | -0.7% | 1.8% | -20.6%
CC(C)CCN(C(=O)CNC(=O)c1cccs1)C(C(=O)NC1CCCCC1)c1cccnc1 (stereo not drawn) | / | 0.0% | / | -13.6% | 3.5% | 4.0% | 0.4% | -7.2%
CC(C)N=Cc1c(O)[nH]c2ccccc12 | -5.1% | 2.6% | -5.4% | 4.6% | -4.6% | -20.7% | -2.7% | -3.2%
O=S(=O)(c1ccc(Cl)cc1)c1nnn2c1nc(NCc1cccs1)c1sccc12 | -0.5% | / | 2.8% | -0.1%[46.1 µM] | / | / | / | 0.0%
COC(=O)C1=C(CS(=O)(=O)c2cc(Cl)ccc2OC)NC(=O)NC1c1ccc(O)c(OC)c1 (stereo not drawn) | / | / | / | / | 4.0% | 2.5% | -0.8% | -5.9%
CC(=O)Nc1ccc(S(=O)(=O)Nc2ccccc2N2CCOCC2)cc1Cl | / | -4.2% | / | 14.0% | 2.9% | -3.2% | -3.4% | -6.4%
CCC(C)NC(=O)C1(O)c2ccccc2NC(=O)N1c1ccc(C)c(C)c1 (stereo not drawn) | / | / | / | / | 1.9% | 1.4% | 0.3% | -1.4%
COc1cc2c(-c3cccc(Cl)c3)nc3c(c(C)nn3-c3ccccc3)c2cc1OC | 0.1% | / | 10.3% | 11.5%[46.1 µM] | / | / | / | -23.0%
COc1ccc(-c2nc(CS(=O)CC(=O)NCc3ccco3)c(C)o2)cc1 (stereo not drawn) | 0.3% | / | -0.2% | / | 5.6% | ? | 14.9% | -3.5%
CCN(C(=O)c1cnc(N2CCOCC2)c2ccccc12)c1cc(C)ccc1C | -3.9% | / | ? | 5.01µM* | / | / | / | -23.5%
Cc1ccc(OCC(=O)N/N=C/c2ccccc2)c([N+](=O)[O-])c1 | / | -0.5%[46.1 µM] | / | 0.8% | -20.5% | / | -3.7% | 12.9%
COC(=O)c1cc(-c2ccc(Br)cc2)c2c(=O)n(C)c(=O)n(C)c2n1 | / | / | / | / | 4.1% | -6.1% | -0.4% | -6.6%
COc1ccc(C(=O)COC(=O)CCNS(=O)(=O)c2ccc(NC(C)=O)cc2)c(OC)c1 | / | 10.6% | / | 4.2% | -6.4% | / | 1.6% | -8.4%
COC(=O)c1[nH]c2ccc(C)cc2c1NC(=O)CN1CCCc2ccccc21 | -14.2% | ? | ? | ? | 6.0% | -3.3% | -28.6% | 0.5%
Cc1nc2c3ccccc3nc(NNC(=O)CCC(=O)N3CCC(C)CC3)n2n1 | / | / | / | / | -1.4% | 13.9% | 4.6% | -22.8%
CS(=O)(=O)N(CC(=O)N1CCCC1)c1ccccc1Br | / | 6.4%[46.1 µM] | / | ? | -0.2% | -7.5% | 3.6% | -6.7%
Cc1ccc(C)c(N2C(=O)CC(Cc3ccc(Cl)cc3)C2=O)c1 (stereo not drawn) | / | -0.9% | / | -17.1% | -10.3% | 5.8% | -8.9% | ?
Cc1c(Cl)cccc1NC(=S)NCCc1ccc(Cl)cc1 | / | ? | / | ? | -13.7% | -102.5% | -3.7% | 25.6%
CCN(CC)S(=O)(=O)c1cc(C(=O)Nc2ccncc2)ccc1Cl | -0.6% | ? | 9.4% | -29.1% | -20.5% | -16.0% | -0.1% | /
CN(C)/C=N/c1c(C#N)cnn1-c1ncnc2sc(-c3ccccc3)cc12 | -9.5% | ? | ? | 11.2µM* | 1.5% | -6.8% | -13.8% | ?
CCC(=O)OC1(C)C(=O)C2=COC(c3ccc(OC)cc3)=CC2=C(Br)C1=O (stereo not drawn) | 2.2% | / | 2.8% | / | ? | -67.7% | 6.5% | 7.8%
Cc1ccc(Cl)cc1N1CCN(C(=O)c2cc(S(=O)(=O)N3CCCC3)cn2C)CC1 | -6.9% | / | 3.8% | -16.4%[46.1 µM] | / | / | / | -21.3%
C=CCN(CC=C)C(=S)NC(=O)/C=C/c1ccc(C)cc1 | -2.8% | 20.5% | 7.1% | -1.7% | 11.1% | 14.3% | ? | 24.5%
COc1ccc(C[C@@H]2CN3C(=NC[C@@H]3C)N2CCNC(=O)c2ccc(C)c(Br)c2)cc1 | / | / | / | / | -2.8% | 2.2% | 0.1% | -11.6%
CCCCCCOc1ccc(C(=O)O)cc1 | / | / | / | / | -15.6% | -77.8% | -1.2% | 11.5%
CC(=O)Nc1ccc(S(=O)(=O)N2CCSC2c2ccccc2Cl)cc1 (stereo not drawn) | -5.8% | -7.5% | ? | -23.6% | -4.9% | -2.8% | 11.4% | ?
O=C(CCN1C(=O)[C@@H]2Cc3ccccc3CN2C1=O)NCCc1ccccc1 | / | / | / | / | 22.4% | 5.6% | 0.6% | -15.1%
CN(C)c1ccc(Cl)cc1N | / | -0.7%[46.1 µM] | / | -11.3%[46.1 µM] | 4.5% | 3.6% | -0.3% | 0.8%
O=C(NCCCN1CCOCC1)c1cc(C(=O)C2CC2)c[nH]1 | 4.3% | -10.2% | 6.8% | -12.8% | -8.4% | 9.8% | 1.4% | 6.8%
O=C(NCc1ccc2[nH]c3c(c2c1)CCCC3)N1CCOCC1 | -2.7% | 4.7% | 24.5% | / | / | 4.9% | -1.9% | /
C=CCc1cccc(CNc2ccc(S(=O)(=O)Nc3nccnc3OC)cc2)c1O | / | 2.0%[46.1 µM] | / | -2.1%[46.1 µM] | -12.9% | -5.7% | -3.7% | -25.7%
N#C/C(=N\Nc1ccccc1)C(=N)N1CCCCCC1 | / | / | / | / | -18.3% | -5.3% | 0.3% | 101.9%[activator]
Nc1ncnc(Sc2ccc(Cl)cc2)c1[N+](=O)[O-] | 0.7% | ? | ? | ? | -19.6% | 1.9% | 4.8% | ?
